# Screening results as filed in PubChem.
# miR-21 FLuc – qHTS Assay for Modulators of miRNAs and/orActivators of miR-21. AID 2288, 2010. 340,000 tested, under 10 active. HeLa miR-21 FLuc reporter, luciferase, 48 h. Potency, µM (series often up to 38.3 µM), for inactives: at the top dose reporter change, positive = more light; active = well fitted rising curve with a large enough effect; inconclusive = small, poorly fitted or top-dose-only effect; inactive = no such curve, though single readings can be large or run the other way;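 further: % of control where 0% means no effect; miR-21 action dims this reporter so a rising signal means less miR-21 action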
#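 HeLa cells stably expressing CMV-driven firefly luciferase with a downstream miR-21 binding sequence, endogenously expressing miR-21, were treated with titrations (up to about 40uM final) for 48 hours at 37 degree Celsius. Luciferase luminescence was read after lysis.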
# The depositor's hits bear a star; ? = inconclusive.
compound	miR-21 FLuc
O=C(CSc1cn(CC(=O)N2CCCC2)c2ccccc12)Nc1cc(C(F)(F)F)ccc1Cl	6%
CN(c1ccccc1)S(=O)(=O)c1ccc(NC(=O)c2cc(=O)c3ccccc3o2)cc1	-6%
Cc1ccc(C(=O)c2oc3ccccc3c2NC(=O)Cc2coc3cc(C)ccc23)cc1	-4%
Cc1cc(C)cc(NC(=O)c2sc3nc(-c4cc5ccccc5oc4=O)[nH]c(=O)c3c2C)c1	-2%
COc1cccc(CSc2nc3n(n2)C(c2ccccc2C)C(C(=O)Nc2ccccc2OC)=C(C)N3)c1 (stereo not drawn)	12%
CN(C)c1ccc(C(CNC(=O)c2cccc(C(F)(F)F)c2)N2CCCC2)cc1 (stereo not drawn)	6%
O=C1CC(c2c(Cl)cccc2Cl)c2c(ccc3ccccc23)N1 (stereo not drawn)	10%
CCN(C(=O)Cn1nc(Cc2cccnc2)c2ccccc2c1=O)c1ccccc1F	-5%
COc1ccc(-c2noc(-c3nnn(-c4ccc(C)cc4C)c3C)n2)cc1	1%
Cc1ccc(C2=CC(c3ccc(Cl)cc3)n3nc(-c4ccc(C)cc4)nc3N2)cc1 (stereo not drawn)	25%
COc1cccc(Nc2sc(C(=O)c3ccc(Cl)cc3)c(N)c2C(=O)NCc2ccc(C)cc2)c1	?
Cc1nc(-c2ccccc2)sc1-c1ccc(SCC(=O)NCc2ccc(F)cc2)nn1	-9%
CCOC(=O)C1CCCN(C(=O)Cn2ncn3c(cc4sc(CC)cc43)c2=O)C1 (stereo not drawn)	13%
COC(=O)CN1C(=O)CSc2ccc(S(=O)(=O)Nc3cc(C)ccc3C)cc21	3%
COc1ccc(CNC(=O)c2cccn2-c2nnc(N3CCCCC3)s2)c(OC)c1	12%

# An excerpt from above in order of length of the SMILES, low to high:
compound	miR-21 FLuc
COC(=O)CN1C(=O)CSc2ccc(S(=O)(=O)Nc3cc(C)ccc3C)cc21	3%
Cc1ccc(C(=O)c2oc3ccccc3c2NC(=O)Cc2coc3cc(C)ccc23)cc1	-4%
Cc1ccc(C2=CC(c3ccc(Cl)cc3)n3nc(-c4ccc(C)cc4)nc3N2)cc1 (stereo not drawn)	25%
COc1cccc(Nc2sc(C(=O)c3ccc(Cl)cc3)c(N)c2C(=O)NCc2ccc(C)cc2)c1	?

# Additional records.
compound	miR-21 FLuc
COc1ccc(C2Nc3ccccc3-c3cc(C)nn32)cc1OC (stereo not drawn)	-5%
CCOC(=O)C1CCC(CN(Cc2ccc(OC)cc2)S(=O)(=O)c2ccc(F)c(C(=O)Nc3cc(Cl)ccc3OC)c2)CC1 (stereo not drawn)	-2%
Cc1ccc(NC(=O)Nc2nnc(SCC(=O)N3CCCCC3)s2)cc1	18%
CC(C)CCOc1ccc(Cn2c(=O)sc3ccccc32)cc1	-12%
Cc1ccc(C(=O)Nc2ccc3c(c2)N(C)C(=O)c2ccccc2S3)cc1F	?
CC1CCN(S(=O)(=O)c2ccc3c(ccc(=O)n3CC(=O)NCc3ccc(Cl)cc3)c2)CC1	-2%
O=C(Cn1nc2c(cc1=O)CCCC2)NCc1ccccc1Cl	-50%
Cc1ccc(CCNC(=O)c2ccc(CSc3nc4ccncc4n3Cc3ccc(F)cc3)cc2)cc1	29%
CSc1nnc2c(n1)OC(c1cccc(O)c1Cl)Nc1ccccc1-2 (stereo not drawn)	-6%
CCN(C(=O)Cn1c(=O)n(Cc2ccccc2)c(=O)c2c1c1cc(OC)ccc1n2C)c1ccccc1	2%
CC(=O)N1CCN(c2csc3ccc(Br)cc3c2=O)CC1	-14%
COc1ccc(NC(=O)Cn2c(=O)n(-c3ccccc3)c(=O)c3c4c(sc32)CCCC4)c(OC)c1	-3%
O=C(NCc1ccccc1Cl)c1ccc2c(c1)ncn2-c1cccc(F)c1	-17%
Cc1cccc(-c2nn3c(=O)cc(CN4CCN(S(=O)(=O)c5ccc(Cl)cc5)CC4)nc3s2)c1	3%
Cc1cc2c(cc1S(=O)(=O)N(CCN(C)C)Cc1ccccc1)OCC(=O)N2	-5%
CCOC(=O)c1cc(S(=O)(=O)N2CCN(c3ccc(OC)cc3)CC2)[nH]n1	4%
Cc1ccccc1CN1C(=O)c2ccccc2Sc2ccc(C(=O)NCc3ccccc3)cc21	6%
CSc1nc(-c2ccc(F)cc2)nc2c1Cc1c(CO)cnc(C)c1O2	-3%
COc1cccc(CNCc2c(C(=O)O)n(Cc3ccc(C)cc3)c3cc(C)ccc23)c1OC	?
COc1ccc(-n2ncc(C(=O)Nc3ccc4c(c3)OCCO4)c2C2CCN(C(=O)OC(C)(C)C)CC2)cc1	28%
CC(C)CN(CCNC(=O)c1cc(=O)[nH]c2ccc(S(=O)(=O)N3CCCCCC3)cc12)CC(C)C	-2%
COc1cccc(/C=C/c2nc(C#N)c(N3CCCCC3)o2)c1	-19%
CCCNc1ncnc2c1c(-c1ccccc1)cn2-c1ccccc1	-7%
Cc1cn(C)c(CC(=O)Nc2ccc(F)cc2Cl)c1C(=O)O	2%
O=C(Nc1ccc2c(c1)N(C1CCCC1)C(=O)c1ccccc1S2)c1ccccc1F	?
Cn1c(=O)oc2cc(S(=O)(=O)N3CCCC(C(=O)N4CCN(c5ccccc5F)CC4)C3)ccc21 (stereo not drawn)	3%
CCOC(=O)c1ccc(N2CCN(c3ccccc3F)CC2)c(NC(=O)Nc2ccc(Cl)c(Cl)c2)c1	-1%
CCCCn1c(=O)nc2n(-c3ccc(F)cc3)c3ccccc3cc-2c1=O	-5%
COc1ccc(C2Nc3ccccc3-c3nnc(SC)nc3O2)cc1C (stereo not drawn)	-1%
Cc1ccccc1-c1nnc(CN2CCN(c3cc(Cl)ccc3C)CC2)o1	-5%
CCOC(=O)c1c(S(=O)(=O)NCC(=O)Nc2cccc(CC)c2)c(C)n(C)c1C	2%
CCn1nc(-c2ccccc2)c(-c2ccccc2)c(C(=O)OCCOC)c1=O	7%
CCc1ccc(NC(=O)CN2C(=O)CCSc3ccc(S(=O)(=O)N4CCCC4)cc32)cc1	-7%
COc1ccc(NC(=O)CN2C(=O)C(c3ccc(C)cc3)=NC23CCCCCC3)cc1Cl	21%
CCn1cc(C(=O)OCC(=O)Nc2cccc(C(C)=O)c2)c(=O)c2ccc(C)nc21	3%
O=c1[nH]c(C2CCCN(S(=O)(=O)c3ccccc3Cl)C2)nc2c1nnn2Cc1ccc(OC(F)(F)F)cc1 (stereo not drawn)	5%
CCOc1cc2c(cc1OCC)C(CC(=O)O)N(C(=O)Nc1ccc(Br)c(C)c1)CC2 (stereo not drawn)	2%
Cc1cc(C)c(NC(=O)CSc2ccc(-c3sc(-c4ccccc4)nc3C)nn2)c(C)c1	-1%
CC(=O)c1cc(-c2ccccc2)n(CCC(=O)Nc2nc3c(C)cccc3s2)c1C	-1%
Cc1ccc(NC(=O)CS(=O)(=O)c2nc(-c3ccc(C)cc3)cn2-c2ccc(C)cc2)cc1	-18%
CCCCSCCCNC(=O)C1CCN(Cc2nc(-c3cccc(Br)c3)oc2C)CC1	0%
Cc1cc2c(cc3c(SCC(=O)Nc4ccc(Cl)cc4F)nncn32)o1	0%
Cc1cc(C)c2c(NC(=O)c3ccccc3Cl)c(C(=O)Nc3ccc(C)c(C)c3)sc2n1	-40%
CCc1ccc(S(=O)(=O)c2cn(CC(=O)Nc3ccc(C)cc3)c3ccccc3c2=O)cc1	8%
Cc1ccccc1NC(=O)c1c(C)oc2ccc(O)c(CN(C)Cc3ccccc3)c12	20%
Cc1cccc(NC(=O)c2cc3c(=O)n4ccccc4nc3n2C)c1C	-3%
COc1ccc(NC(=O)Cn2c(SCc3c(F)cccc3Cl)nc3ccncc32)cc1OC	-6%
CCOc1ccccc1NC(=O)C1=C(C)Nc2ncnn2C1c1ccc(NC(C)=O)cc1 (stereo not drawn)	0%
COc1ccc(Cn2c(CNS(=O)(=O)c3ccc4c(c3)CCCC4)nc3cccnc32)cc1	24%
CCOc1ccccc1C(=O)Oc1c(S(=O)(=O)c2ccc(C)cc2)c(C)nn1-c1ccccc1	1%
O=C(CC1C(=O)N(c2ccc(F)cc2)C(=O)N1Cc1cccnc1)Nc1ccc(F)cc1 (stereo not drawn)	4%
Oc1ccc(NCc2ccccc2OCc2ccccc2Cl)cc1	23%
Cc1cccc(Cc2cnc(NC(=O)c3ccc4c(c3)CC(c3ccccc3)OC4=O)s2)c1 (stereo not drawn)	-2%
COc1cccc(NC(=O)CN(CCc2ccccc2)S(=O)(=O)c2ccc(Cl)cc2)c1	2%
Cc1cccc(OCC(=O)Nc2c(C(=O)N3CCN(c4ccccc4)CC3)oc3ccccc23)c1	20%
COc1cccc(-n2ccn(CC(=O)NCc3ccc(C)cc3)c(=O)c2=O)c1	-1%
COc1ccc(Cl)cc1-n1nnc(-c2nc(-c3ccccc3)no2)c1C	-44%
O=C(Nc1ccccc1C(F)(F)F)N1CC=C(c2c[nH]c3ccccc23)CC1	1%
COc1ccc(NC(=O)c2c(-c3ccc(C)cc3)nnc3ccccc23)c(OC)c1	-3%
COc1ccc(SCc2cc(=O)c3cc(Cl)ccc3[nH]2)cc1	17%

# Random excerpt: 6 entries already listed
compound	miR-21 FLuc
COc1ccc(NC(=O)c2c(-c3ccc(C)cc3)nnc3ccccc23)c(OC)c1	-3%
COc1cccc(NC(=O)CN(CCc2ccccc2)S(=O)(=O)c2ccc(Cl)cc2)c1	2%
COc1ccc(SCc2cc(=O)c3cc(Cl)ccc3[nH]2)cc1	17%
Cc1cccc(OCC(=O)Nc2c(C(=O)N3CCN(c4ccccc4)CC3)oc3ccccc23)c1	20%
O=C(CC1C(=O)N(c2ccc(F)cc2)C(=O)N1Cc1cccnc1)Nc1ccc(F)cc1 (stereo not drawn)	4%
COc1cccc(-n2ccn(CC(=O)NCc3ccc(C)cc3)c(=O)c2=O)c1	-1%

# Carrying on.
molecule,miR-21 FLuc
Cc1ccc2[nH]c(=O)c3cc(C(=O)NCCc4ccc(Cl)cc4)sc3c2c1,-2%
COc1ccc(OC)c(CNC(=O)Cc2ccc(NC(=O)N3CCSc4ncccc43)cc2)c1,11%
Cc1cccc(CNS(=O)(=O)c2ccc(-c3coc(C)n3)cc2)c1,-5%
CCc1ccc2nc(N(CCN(CC)CC)C(=O)c3ccco3)sc2c1,-36%
COc1ccc(Cl)cc1NC(=O)CSc1nc(-c2ccco2)cc(C(F)(F)F)n1,22%
COc1ccc(OCC(=O)NCC(c2ccc(Cl)cc2)N2CCCCC2)cc1 (stereo not drawn),1%
Cc1cc(NC(=O)CC(C)C)cc(-c2nc3ncccc3o2)c1O,-2%
CC1=C(c2ccc(C(C)C)cc2)S(=O)(=O)N=C1N1CCN(c2ccccc2F)CC1,-7%
Cc1ccc(CSc2nncn3c2cc2sccc23)cc1,-1%
COc1ccc(OC)c(CCNc2ncnc3onc(C)c23)c1,?
Cc1ccc(NC(=O)Nc2nnc(N(C)Cc3ccccc3)s2)c(C)c1,16%
Cc1ccccc1-c1noc(-c2ccc(N3CCCCC3)c([N+](=O)[O-])c2)n1,-35%
O=c1c2ccccc2n(Cc2cccc(F)c2)c(=O)n1Cc1ccccc1Cl,5%
Cc1cccc(-c2nnc(C3CCN(S(=O)(=O)c4cccc(Cl)c4)CC3)o2)c1,-22%
Cc1cc(C)c(NC(=O)Cn2c(=O)n(-c3ccc(F)cc3)c(=O)c3c(C)c(C(=O)N(C)C)sc32)c(C)c1,3%
CC(C)Oc1ccc(CNC(=O)C2CCCCN2S(=O)(=O)c2ccc(F)cc2)cc1 (stereo not drawn),-2%
COc1ccccc1CNC(=O)CN1C(=O)CCc2cc(S(=O)(=O)N3CCCCC3)ccc21,-7%
Fc1ccc2c(c1)-c1nc(-c3ccccc3)cc(-c3ccccc3)c1CO2,-12%
CCc1ccc(-n2c(=O)c3c4c(sc3n(CC(=O)N3CCC(C)CC3)c2=O)CCC4)cc1,2%
CC(C)CCN(Cc1ccco1)C(=O)c1cc2c(s1)-c1ccccc1OC2,7%
Cc1nn(S(=O)(=O)c2ccc(C(C)C)cc2)c(C)c1S(=O)(=O)N1CCCCCC1,-1%
CC(C)c1ccc(S(=O)(=O)c2nnn3c2nc(NCCc2ccccc2)c2sccc23)cc1,20%
Cc1cccc(OCC(=O)Nc2ccc(Cl)c(-c3nc4ccccc4[nH]3)c2)c1,28%
CCOC(=O)N1CCN(C(=O)c2cnn(-c3cccc(C)c3)c2-n2cccc2)CC1,-2%
COCCNC(=O)c1sc2nc3n(c(=O)c2c1C)CCC3,-3%
Cc1ccc(S(=O)(=O)c2nnn3c2nc(NC2CCCCC2)c2sccc23)cc1C,-8%
COc1ccc(NC(=O)Cn2c(=O)n(CCc3ccccc3)c(=O)c3ccccc32)cc1,-17%
CC(C)c1ccc(NC(=O)c2cc3sc(Cl)cc3n2C)cc1,-6%
COC(=O)c1cc(NC(=O)Cn2nc(-c3ccccc3)c3c(c2=O)CCCC3)cc(C(=O)OC)c1,7%
CCOC(=O)c1cc(-c2ccc(OC)cc2)n(CCC(=O)NC2CCC(C)CC2)c1C (stereo not drawn),7%
O=C(CSc1nc2c(oc3ccccc32)c(=O)n1Cc1ccco1)Nc1ccccc1Cl,1%
N#Cc1c(Cl)nc(-c2cccnc2)nc1-c1ccccc1,4%
CCCCCn1cc2c(c1-c1ccc(Br)cc1)c(=O)n(C)c(=O)n2C,6%
COc1ccc(C2=C(C)C(N3CCN(c4ccc(OC)cc4)CC3)=NS2(=O)=O)cc1,-1%
Cc1ccccc1NC(=O)c1c(NC(=O)C(C)Oc2cccc(Cl)c2)sc2c1CCCC2 (stereo not drawn),-2%
CCOc1ccccc1NC(=O)c1cc(S(=O)(=O)NC2CCCC2)ccc1F,-5%
Cc1cccc(C)c1NC(=O)c1c(C)oc2c1C1=NCCN1C=N2,-8%
Cc1nc2c(C(=O)NCCc3ccc(Cl)cc3)c[nH]n2c(=O)c1Cc1ccc(Cl)cc1,10%

# The list is partial; rates above refer to the full screens.
